Source: PubChem
IP6K1 inh: Primary qHTS assay for small molecule inhibitors of Inositol hexaphosphate kinase 1 (IP6K1); Inositol hexakisphosphate kinase 1 (Homo sapiens), Q92551; IP6K1 kinase, ADP-Glo luminescence, 2 h; hits give low values; activity change, % (series mostly up to about 58 µM); actives 0.81% (n = 140,000); AID 1645851, 2021; in the data active = activity change below about -25%
Target sequence (Q92551 whole entry, looked up): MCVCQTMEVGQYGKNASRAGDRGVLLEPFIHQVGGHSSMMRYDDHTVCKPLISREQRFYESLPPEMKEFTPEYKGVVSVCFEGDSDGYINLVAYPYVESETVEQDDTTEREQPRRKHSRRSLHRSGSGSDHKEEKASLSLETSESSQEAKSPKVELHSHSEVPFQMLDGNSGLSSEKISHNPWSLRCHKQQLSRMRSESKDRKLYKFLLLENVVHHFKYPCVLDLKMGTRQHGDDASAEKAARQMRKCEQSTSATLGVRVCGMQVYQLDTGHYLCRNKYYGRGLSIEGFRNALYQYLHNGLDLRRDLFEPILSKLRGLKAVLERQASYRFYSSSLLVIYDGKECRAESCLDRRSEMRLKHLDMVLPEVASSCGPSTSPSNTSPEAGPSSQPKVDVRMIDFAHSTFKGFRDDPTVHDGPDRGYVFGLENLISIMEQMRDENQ
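ADP-Glo luminescence measures ADP made by human IP6K1 during a 2 h RT reaction with ATP/IP6 (mix at 1.3 mM/130 uM); top library doses 57.5 and 19.1 uM final.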
HEK293 tox: Cytotoxic Profiling in HEK 293 Cell Line of Diverse Libraries Using Quantitative High-Throughput Screening; HEK 293 viability, ATP luminescence (CellTiter-Glo), 48-72 h; Potency, µM (series often up to 115 µM), for inactives: top-dose activity change, negative = cytotoxicity, usual class: inhibitors; actives 6.6% (n = 94,000); AID 1345083, 2018; also: potency is read from the fitted curve at half-maximal effect; nearly all actives have a fitted effect of over 60% in size
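Pintool-delivered compounds were incubated with HEK 293 cells (250 cells/well) at 37 degree Celsius for 48 or 72 hr. ATP-dependent luminescence (CellTiter-Glo) then reported remaining viable cells.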
Luciferase inh: Firefly luciferase inhibition profiling of diverse chemical library using quantitative high-throughput screening | Luciferin 4-monooxygenase (Photinus pyralis), P08659 | purified P. pyralis luciferase, luminescence, biochemical | Potency, µM (doses to about 115 µM), for inactives: at the top dose activity change, negative = inhibition, hits mostly inhibitors | actives 2.5% (n = 76,000) | AID 1347043, 2019; also: potency is read from the fitted curve at half-maximal effect; nearly all actives have a fitted effect of over 65% in size
Target sequence (P08659 whole entry, looked up): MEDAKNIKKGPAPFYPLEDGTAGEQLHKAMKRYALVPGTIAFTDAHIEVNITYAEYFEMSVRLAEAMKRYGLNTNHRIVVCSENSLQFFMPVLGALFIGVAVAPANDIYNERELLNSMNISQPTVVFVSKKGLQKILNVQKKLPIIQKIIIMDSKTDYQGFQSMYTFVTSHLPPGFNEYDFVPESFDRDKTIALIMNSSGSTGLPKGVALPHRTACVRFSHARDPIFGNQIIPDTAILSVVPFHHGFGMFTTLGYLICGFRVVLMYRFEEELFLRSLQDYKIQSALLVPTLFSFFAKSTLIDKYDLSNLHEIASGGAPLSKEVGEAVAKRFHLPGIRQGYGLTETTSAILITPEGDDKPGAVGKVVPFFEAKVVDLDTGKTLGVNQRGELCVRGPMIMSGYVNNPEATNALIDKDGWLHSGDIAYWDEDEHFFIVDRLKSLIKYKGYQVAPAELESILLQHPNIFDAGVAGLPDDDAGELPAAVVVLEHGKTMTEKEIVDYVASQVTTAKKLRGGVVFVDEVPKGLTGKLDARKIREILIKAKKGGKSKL
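Cell-free enzyme assay, 10nM P. pyralis luciferase, luciferin and ATP each at 10uM. Inhibition profiled over a 6-point titration, read as luminescence.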
HEK293 viab: GF-AFC viability counterscreen for inhibitors of alpha-synuclein gene (SNCA) expression; actives 0.12% (n = 150,000); Potency, µM (highest dose often 57.1 µM), for inactives: top-dose activity change, negative = cytotoxicity, most hits filed as cytotoxic; HEK-293-SNCA-luc viability, GF-AFC fluorescence, 24 h;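 also: potency is read from the fitted curve at half-maximal effect; 0% = DMSO-treated cells and -100% = medium-only wells without cells; nearly all actives have a fitted effect of over 30% in size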
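Cytotoxicity counterscreen: after 24 h compound treatment of genome-edited SNCA-luciferase HEK-293 cells, live-cell protease substrate GF-AFC read by fluorescence after 30 min; activity scaled between DMSO (0%) and medium-only (-100%), curves Hill-fitted.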
SNCA expr inh: Primary qHTS assay for inhibitors of alpha-synuclein gene (SNCA) expression | HEK-293 SNCA-luciferase knock-in, luminescence, 24 h | Potency, µM (highest dose often 57.2 µM), without a hit: at the top dose activity change, negative = inhibition, most hits filed as inhibitors | actives 0.17% (n = 140,000);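 also: potency is read from the fitted curve at half-maximal effect; plate controls were DMSO cells for no effect and cell-free wells for full effect; nearly all actives have a fitted effect of over 45% in size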
3T3 cytotox: Cytotoxic Profiling in NIH 3T3 Cell Line of Diverse Libraries Using Quantitative High-Throughput Screening. AID 1345082, 2018. NIH 3T3 viability, CellTiter-Glo ATP luminescence, 48-72 h. actives 4.3% (n = 94,000). Potency, µM (titrated, usually from 96.7 µM), without a hit: at the top dose activity change, negative = cytotoxicity, actives largely listed as inhibitors; also: potency is read from the fitted curve at half-maximal effect; nearly all actives have a fitted effect of over 55% in size
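First NIH 3T3 cells are plated at 400 cells/well; next compound is pinned in; then plates incubate 48 or 72 hr at 37 °C; finally CellTiter-Glo is added and luminescence read after 10 min.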
* = called active by the depositor; i = inactive; ? = inconclusive; / = not tested or not shown; [ ] = another dose, or the depositor's remark. Unless noted, calls follow the shape of the dose curve; as a rule, active = well fitted curve in the direction sought with a large enough effect; inconclusive = small, poorly fitted or top-dose-only effect, or another doubt; inactive = no such curve, though single readings can be large; an effect the other way counts as inactive or inconclusive. Unless noted, % is scaled to controls: 0 for no effect and ±100 for the full control effect. A portion of the library. The share of hits here may be higher or lower than overall.

canonical_smiles	IP6K1 inh	3T3 cytotox	SNCA expr inh	HEK293 tox	HEK293 viab	Luciferase inh
CCn1ccc2sc(C)c(C(=O)N3CCCCC3)c2c1=O	-4	-28%	29%	-13%	-6%	-12%
Cc1cc(F)ccc1OC1CN(Cc2ccc(C#N)cc2)C1	3	?	-18%[87.6 µM]	63µM*	-14%[87.6 µM]	2%[172 µM]
COc1ccc(C(=O)N2CCC3(CC2)NC(=O)N(c2ccc(F)cc2)N3)cc1	12	?	7%	?	-14%	12%
Cn1cc([C@@H](NC(=O)c2nc3ccccc3[nH]c2=O)C2CC(O)C2)cn1 (stereo partly drawn)	-8	-16%	20%	-19%	11%	-14%
COc1ccc(-c2nc3ccc(-c4ccc5c(c4)OCO5)cc3o2)c(OC)c1OC	19	?	72%[activator]	?	0%	13µM*
Cn1cc(C2CCN(C(=O)c3c(Cl)cc(Cl)cc3Cl)CC2)c2ccccc21	-8	?	-8%	?	3%	4%
Cc1cc(F)ccc1NC1CN(C(=O)OC(C)(C)C)C1	13	-22%[138 µM]	-23%[87.6 µM]	-23%[172 µM]	4%[87.6 µM]	/
CC(C)(C)C(=O)N1CC[C@@H](CC(=O)O)[C@@H](CCN2CCN(c3ccc(F)cc3)CC2)C1	-1	-21%[174 µM]	16%[87.6 µM]	-18%[172 µM]	3%[87.6 µM]	-5%[172 µM]
CN(C)C[C@H]1C[C@@H](CO)CN(C(=O)c2csc(Cc3ccccc3)n2)C1	9	-25%	-9%	3%	2%	-3%
Cc1ccc(C(=O)N2CCc3nc(OCC4CC4)ccc3C2)cn1	-12	-27%	-10%	?	-2%[12.5 µM]	-7%
COc1ccccc1CCC(=O)N1CCC2(CC1)NC(=O)N(c1ccc(F)cc1)N2	3	?	4%	?	5%	2%
CCO[C@H]1CN(C(=O)c2cnc(Nc3ccccc3)nc2)C[C@@H]1O	14	-20%	-10%	-11%	0%	10%

Further compounds:
canonical_smiles	IP6K1 inh	3T3 cytotox	SNCA expr inh	HEK293 tox	HEK293 viab	Luciferase inh
CCn1cc(CN2CCN(C(=O)CCc3ccccc3)CC2)ccc1=O	-2	-22%	12%	-25%	9%	-31%
Cc1nnc2n1CCC(NC(=O)c1cc(CN3CCOCC3)on1)CC2 (stereo not drawn)	-4	0%	1%	?	14%	-17%
COc1ccc(OC)c(C2C(C#N)=C(N)Oc3n[nH]c(-c4ccc5ccccc5c4)c32)c1 (stereo not drawn)	-18	/	/	/	-2%	/
CC(C)(C)CC(=O)N1CC[C@@H](CC(=O)O)[C@@H](CCN2CCN(c3cccc(C(F)(F)F)c3)CC2)C1	6	0%	17%	i	2%	11%
CC1(C)CC=C(C#Cc2ccccc2)c2cc(/C=C/c3ccc(C(=O)O)cc3)ccc21	-7	/	/	/	3%	/
COc1ccc(NC(=O)CCc2ccnc(N3CCCC3)c2)c(C)c1	-17	?	8%	?	-14%	-8%
NS(=O)(=O)CCCC(=O)N1CCCC(CCc2ccccc2F)C1 (stereo not drawn)	11	?	15%	?	2%	3%
CCN(CC)C(=O)CCC1CCN(C(=O)c2ccccc2Cl)CC1	21	?	2%	-11%	-11%	/
CCC(O)c1cc2n(n1)CCN(C(=O)CN1CCOc3ccccc3C1)C2 (stereo not drawn)	0	-17%	?	1%	5%	-9%
CCc1noc(-c2nc(Cc3cccc(F)c3)no2)n1	-1	-9%	48%[activator]	-3%	4%	-7%
CCCS(=O)(=O)NCc1cccnc1Oc1ccc(F)c(F)c1	8	-3%	-13%	i	13%	-5%
O=C(NCCNC(=O)c1cccc(-c2ccsc2)c1)c1ccc(Cl)cc1	-4	3%	9%	-25%	0%[12.5 µM]	/

A stretch of the results above, as a working copy:
canonical_smiles	IP6K1 inh	3T3 cytotox	SNCA expr inh	HEK293 tox	HEK293 viab	Luciferase inh
CCn1cc(CN2CCN(C(=O)CCc3ccccc3)CC2)ccc1=O	-2	-22%	12%	-25%	9%	-31%
Cc1nnc2n1CCC(NC(=O)c1cc(CN3CCOCC3)on1)CC2 (stereo not drawn)	-4	0%	1%	?	14%	-17%
COc1ccc(OC)c(C2C(C#N)=C(N)Oc3n[nH]c(-c4ccc5ccccc5c4)c32)c1 (stereo not drawn)	-18	/	/	/	-2%	/

Next section:
canonical_smiles	IP6K1 inh	3T3 cytotox	SNCA expr inh	HEK293 tox	HEK293 viab	Luciferase inh
COCCCNC(=O)c1ccc2oc(-c3ccc(OC)nc3)nc2c1	10	-22%[138 µM]	20%[87.6 µM]	-5%[172 µM]	4%[87.6 µM]	/
CCn1c(CO)nnc1C1CC(NC(=O)c2ccccc2-n2cccn2)C1 (stereo not drawn)	32	i	-9%	1%	-1%	-2%
COC(=O)c1ccnc(-c2cc(C(=O)NCCc3ccccc3)ccn2)c1	-6	/	/	/	?	/
COCc1nc(C2CC(N)C2)cc(N2CCc3[nH]nc(C(=O)OC)c3C2)n1 (stereo not drawn)	9	-8%	43%[activator]	-16%	4%	-2%
COc1cc(NC(=O)N[C@H]2CO[C@H]3[C@@H]2OC[C@@H]3Nc2nccc(-c3cccs3)n2)cc(OC)c1	-6	?	18%	?	-11%	-14%
Cc1noc(-c2ccc(C(C)(C)C)cc2)c1C(=O)NCc1cccc(Cl)c1	-4	?	4%	?	-1%	-7%
COc1ccc(-c2ccc3nc(-c4cc(F)cc(F)c4F)oc3c2)c(OC)c1OC	-12	?	11%	?	-6%	-4%
CN1[C@@H](CCC(=O)N2CCN(c3ccccc3)CC2)CNC(=O)[C@@H]2[C@H]1CCN2Cc1ccc(F)cc1	1	?	-6%	?	-8%	5%
CC(=O)N1CCC(N2C[C@H](O)C[C@H]2c2nc(-c3ccc4c(c3)OCO4)no2)CC1	15	-18%[174 µM]	181%[activator][87.6 µM]	-19%[172 µM]	-7%[87.6 µM]	-20%[172 µM]
COc1coc(C(=O)N2CCCC(c3ccccc3)(c3ccccc3)C2)cc1=O	-6	?	-11%	?	9%	-1%
CN1[C@@H](CCC(=O)NCc2ccc(F)cc2)CNC(=O)[C@@H]2[C@H]1CCN2Cc1ccc(F)cc1	-5	-17%	13%	?	-1%	-1%
COc1ccc(CN2CC3(CCN(C(=O)Nc4ccc(OC)c(OC)c4)CC3)C2=O)cc1	7	-23%	-14%	?	-2%	7%

(further entries)
canonical_smiles	IP6K1 inh	3T3 cytotox	SNCA expr inh	HEK293 tox	HEK293 viab	Luciferase inh
CCCNC(=O)N1CCCCCCN(C)C(=O)CC1	5	-11%	?	i	1%	5%
O=C1CN(C(=O)CCC(=O)N2CCC3(CCCCO3)CC2)c2ccccc2N1	28	-16%	-3%	-9%	9%	-2%
CCC(CC)C(=O)N1CCC(N2CCCC(C(=O)NCc3ccccc3)C2)CC1 (stereo not drawn)	2	-5%	2%	-6%	-6%	5%
Cc1noc(-c2ccncc2)c1C(=O)NCCCCc1ccccc1	-1	-7%	-4%	?	2%	1%
O=C(NCc1cccnc1Oc1ccc(F)c(F)c1)C1(Cn2cccn2)CC1	12	-26%	10%	-23%	-3%	5%
COc1ccc(S(=O)(=O)N2CCCC(Cc3noc(-c4cccnc4)n3)C2)cc1 (stereo not drawn)	0	?	-1%	?	-15%	-18%
CCCN1CC2(CCN(C)CC2)CC1C(=O)N(C)Cc1nnc(C)o1 (stereo not drawn)	16	2%	-12%	-26%	0%	0%
Cc1cc(OC2CN(Cc3ccsc3)C2)ccc1F	7	-9%[138 µM]	-3%[87.6 µM]	-15%[172 µM]	3%[87.6 µM]	-5%[172 µM]
O=C(NC1CCCc2c1cnn2-c1ccc(F)cc1F)c1ccsc1 (stereo not drawn)	19	?	?	?	-10%	-10%
O=C(NCc1nnc2n1C(C(=O)NCCc1ccc(Cl)cc1)CC2)Nc1cccnc1 (stereo not drawn)	-3	i	8%	i	5%	/
Cc1ccc(-c2nc3cnccn3c2NCCC(=O)N2CCCCC2)cc1	18	0%	-12%	-7%	?	-4%
O=C(Cn1nnnc1CN1CCCC1)N1CCN(C2CCc3ccccc3C2)CC1 (stereo not drawn)	0	-21%	?	-7%	2%	-5%

Continuation.
canonical_smiles	IP6K1 inh	3T3 cytotox	SNCA expr inh	HEK293 tox	HEK293 viab	Luciferase inh
COc1ccccc1CNC(=O)c1ccc2c(c1)C(O)CCCCCN2C (stereo not drawn)	4	?	9%	?	-3%	1%
CC(c1ccc(-n2cncn2)cc1)n1ccnc1-c1cc2n(n1)CCNC2 (stereo not drawn)	-9	-6%	-12%	?	-4%	-14%
CC(C)CCN1CC2(CCCN(C(=O)Cn3ccc(=O)[nH]c3=O)C2)CCC1=O (stereo not drawn)	-2	i	7%	4%	-3%	-1%
COCCC1(CO)CCCN(CC(=O)NCc2ccccn2)C1 (stereo not drawn)	-6	-1%	3%	1%	7%	14%
CCCc1noc(CN(C)C(/C=C/c2ccccc2)C(=O)O)n1 (stereo not drawn)	4	-18%	8%	-10%	?	10%
Cc1sc2ccn(Cc3ccc(F)cc3)c(=O)c2c1C(=O)NCc1ccccn1	-5	?	-1%	-31%	0%	-10%
CCCNC(=O)N1CCCC(c2nc(CCOc3cccc(C)c3)no2)C1 (stereo not drawn)	3	?	33%[activator]	?	-5%	-16%
O=C(NCC1CC1)C1Cn2cccc2C(=O)N1Cc1cccnc1 (stereo not drawn)	0	-12%	1%	-6%	-7%	0%
Cc1ccc(S(=O)(=O)N2CCC(CCC(=O)NC3CCS(=O)(=O)C3)CC2)cc1 (stereo not drawn)	10	?	18%	-1%	5%	1%
O=C1c2c(nc(COc3cccc(F)c3)n2Cc2ccccc2)NCCN1CCOc1ccccc1	-15	35µM*	-14%	?	-4%	-1%
COC[C@H]1CCCN1C(=O)CC[C@H]1CNC(=O)[C@@H]2[C@@H](CCN2Cc2ccc(O)cc2)N1C	5	i	17%	i	2%	9%
CCn1cc(S(=O)(=O)NC2CCCN(C3CCCCCC3)C2)cn1 (stereo not drawn)	-10	4%	2%	3%	4%	9%

Next structures follow:
canonical_smiles	IP6K1 inh	3T3 cytotox	SNCA expr inh	HEK293 tox	HEK293 viab	Luciferase inh
Cc1nc(C2CC(NC(=O)Cn3cc(Cl)c(C)n3)C2)cc(=O)[nH]1 (stereo not drawn)	6	-11%	-11%	1%	10%	-5%
O=C(NCc1ccncc1)C1Cn2cccc2C(=O)N1Cc1ccccc1 (stereo not drawn)	-3	-21%	-19%	-6%	2%	0%
Cc1cc(=O)c(C(=O)N2CCCn3nc(CO)cc3C2)cn1C	7	0%	-25%	?	7%	-4%
CN(C)c1ncnc2sc3c(c12)CCN(Cc1ccncc1)C3	-7	?	?	-19%	-7%	-3%
O=C(CN1CCCCCCC1)N1CCn2cncc2C1	22	-11%	32%[activator]	-23%	2%	-4%
Cn1cnc(S(=O)(=O)N2CCCC(Cc3noc(-c4cnccn4)n3)C2)c1 (stereo not drawn)	15	1%	28%	2%	-7%	-6%

Whole records as entered above.
Shown for Cc1nc(C2CC(NC(=O)Cn3cc(Cl)c(C)n3)C2)cc(=O)[nH]1 (stereo not drawn) = IP6K1 inh: 6; 3T3 cytotox: -11%; SNCA expr inh: -11%; HEK293 tox: 1%; HEK293 viab: 10%; Luciferase inh: -5%
Shown for CN(C)c1ncnc2sc3c(c12)CCN(Cc1ccncc1)C3 = IP6K1 inh: -7; 3T3 cytotox: ?; SNCA expr inh: ?; HEK293 tox: -19%; HEK293 viab: -7%; Luciferase inh: -3%
